Compound activity from PubChem BioAssay.
Choline anaer gr: inhibitors of anaerobic choline-dependent gram-negative bacterial growth; Gram-negative bacterium anaerobic choline minimal medium, absorbance growth; hits give low values; many inactives read as strong as hits in the columns shown; 55,000 tested, 0.2% active; calls only;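 active = growth z-score on choline under -2 at 7 or 20 h with little or no fall on glycerol, limits in tiers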;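 also: stock transfer was 300 nL into about 50 µL; the organism is E. coli; final concentration not given here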
Choline anaer gr early: also measured in Choline anaer gr; calls as there; z-score; measured here: choline growth z-score, timepoint 1;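 score of optical density at 7 h as mean of two plates; lower means less growth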
* marks the source's active call; other numbers are inactive results; i = inactive; & = joins results of further samples. These rows are one share of the data; rates above refer to the full screens.

mol	Choline anaer gr	Choline anaer gr early
CCOc1ccc(NC(=O)N2CCN(Cc3nc(-c4ccc(C(=O)NC)cc4)oc3C)CC2)cc1	i	0.57
COc1ccc(-c2cc(C(F)(F)F)c3c(C)nn(-c4ccc(Cl)cc4)c3n2)cc1	i	-1
Cc1ccc(C2=NC3(CCNCC3)NC(c3cc(Br)ccc3O)C2)cc1 (stereo unspecified)	i	0.32
CN1C(=O)c2ccc(NC(=O)CCc3nc(CSc4nc5ccc(Cl)cc5[nH]4)no3)cc2C1=O	i	0.68
C[C@H]1CC2C3CCC4=CC(=O)C=C[C@]4(C)[C@@]3(F)[C@@H](O)C[C@]2(C)[C@@]1(O)C(=O)COP(=O)(O)O (stereo partly specified)	i	0.54
CC1CCN(C(=O)c2cc3c(s2)-c2ccccc2S(=O)(=O)C3)CC1	i	0.36
CCc1nc(-c2cc(S(=O)(=O)N3CCC(C(=O)Nc4ccc5c(c4)OCCO5)CC3)c(C)s2)no1	i	0.5
COc1cccc2sc(N3CCN(C(=O)c4ccc5c(c4)OCCO5)CC3)nc12	i	0.58
O=C1CC(c2ccccc2Br)c2cnn(-c3ccc(F)cc3)c2N1 (stereo unspecified)	i	-0.06
Cc1cccc(Nc2ncnc3c2cnn3C)c1	i	-2
Cc1ccc(-c2nc3ccccc3c3nnc(SCC(=O)Nc4nccs4)n23)cc1	i	-0.27
O=C(O)c1cc(N2CCN(c3ncccn3)CC2)nc2ccc(NS(=O)(=O)c3ccc(F)c(F)c3)cc12	i	-1.3
Cc1ccc(Cn2cccc2CNS(=O)(=O)c2ccc(C)c(C)c2)cc1	i	0.11
CCCn1cnc2nc(CSc3ccccc3NC(=O)C3CCCCC3)cc(=O)n21	i	-0.58
Cc1nc2ccccn2c(=O)c1NC(=O)c1cccc(F)c1	i	0.16
CCSc1nn(CC(=O)Nc2cc(C)cc(C)c2)c(N)c1S(=O)(=O)c1ccc(Cl)cc1	i	0.45
CC(C)N1C(=O)c2ccccc2Oc2ccc(NC(=O)C3CC(=O)N(c4ccccc4)C3)cc21 (stereo unspecified)	i	-2.1
COC(=O)c1cc(C2CC2)nc2c1c(=O)n(Cc1cn3ccccc3n1)c(=O)n2-c1ccccc1	i	-0.24
Cn1c(=O)c(-c2noc(CCC(=O)Nc3cccnc3Cl)n2)nn(-c2ccccc2)c1=O	i	0.44
O=C(c1cc(-c2cccnc2)n[nH]1)N1CCCC(C(=O)N2CC=C(c3ccccc3)CC2)C1 (stereo unspecified)	i	0.26
Cc1ccsc1C1CCCCCN1S(=O)(=O)c1ccc(Br)s1 (stereo unspecified)	i	4.3
COc1ccc(Cn2nnc3cc(C(=O)NCc4ccc(OC)cc4OC)ccc32)cc1	i	1.1
CCC(C)NC(=O)Nc1cc2c(cc1Oc1ccccc1)n(C)c(=O)n2C (stereo unspecified)	i	0.03
COc1ccccc1CNC1=NCCNC12CCN(S(=O)(=O)c1ccccc1)CC2	i	0.21
O=C(c1ccc(C2Nc3ccccc3S(=O)(=O)N2)cc1)N1CCN(c2ccccn2)CC1 (stereo unspecified)	i	0.85
CC(C)c1ccc(-c2noc(SCC(=O)Nc3ccccc3Cl)n2)cc1	i	-0.16
CCOc1ccc(N2CCCCn3c2nc2c3c(=O)n(CC)c(=O)n2C)cc1	i	1.1
CC(=O)Nc1nc(CC(=O)NCCc2ccc(S(N)(=O)=O)cc2)cs1	i	0.05
Cc1ccc(CNC(=O)CNC(=O)C2(C)Cn3c(cc4ccccc43)C(=O)N2C)cc1 (stereo unspecified)	i	-0.62
CCC(CC)C(=O)Nc1ccc(-c2ccc(S(=O)(=O)CC)nn2)cc1	i	1.2
O=C(OCC1CCCO1)c1ccc2c(c1)N(Cc1ccc(Cl)cc1)C(=O)c1ccccc1S2(=O)=O (stereo unspecified)	i	1.5
Cc1ccc(-c2c(C)noc2C)cc1S(=O)(=O)N1CCC(Cc2ccccc2)CC1	i	0.35
CN1CCN(c2ncncc2N2CCC(C(=O)NC3CCCCCC3)CC2)CC1	i	-1.8
CCCN1C(=O)c2ccccc2Sc2cc(-c3noc(CCc4c[nH]c5ccccc45)n3)ccc21	i	-0.05
COc1cc(OC)cc(-c2noc(-c3scc(-c4cccc(C)c4)c3-n3cccc3)n2)c1	i	0.25
O=C(NCCN1CCCCC1)c1cc2n(n1)CCCN(Cc1ccc(F)cc1)C2=O	i	0.45
COc1ccc(Cl)cc1NC(=O)Nc1nc(-c2ccccc2)cs1	i	2.3
Cc1cc(NCCOCCO)n2nc(-c3ccccc3)c(C)c2n1	i	0.76
CC1CCN(C(=O)c2cc3c(s2)-c2ccccc2SC3)CC1	i	0.23
Cc1ccc(Cn2c(CN3CCC(C(=O)NCc4cccnc4)CC3)cc3ccccc32)cc1	i	-1.2
Cc1noc(-c2ccc(NC(=O)C3CC(=O)N(c4ccccc4C)C3)cc2)n1 (stereo unspecified)	i	-0.97
COc1ccc(-c2cc(Oc3cccc(C(=O)NCc4ccc(Br)cc4)c3)ncn2)cc1	i	2.3
O=C(NCc1cccnc1)C1CCCN(c2ncnc3c2oc2ccccc23)C1 (stereo unspecified)	i	-0.9
Cc1sc(-c2cc(C(F)(F)F)on2)cc1S(=O)(=O)NCCc1ccc(Cl)cc1	i	-0.17
CCn1nc(C)c2c1c(=O)n(Cc1ccc(F)cc1)c(=O)n2CC(=O)N1CCCCC1C (stereo unspecified)	i	1
COC(=O)C1=C(C)NC(C)=C(C(=O)OC)C1c1ccc(OCc2ccccc2)cc1	i	0.66
CC1(C)Cc2cccc(OCC(=O)Nc3cc(Cl)ccc3O)c2O1	i	-0.34
COc1ccc(-c2nc3sc(N(C)CC(=O)NCCN4CCOCC4)nn3c2NC(C)(C)C)cc1	i	0.26
O=S(=O)(NC1CCCCCC1)c1ccc(-c2nnc(C3CC3)o2)s1	i	-0.02
O=C(c1cccn2c(=O)c3c4c(sc3nc12)CCCC4)N1CCc2ccccc2C1	i	-0.74
Cc1ccc2c(c1)N(C(=O)N1CCC(C(=O)NCc3ccccc3)CC1)CCO2	i	1.1
CC(=O)Oc1ccccc1C(=O)Nc1ncc([N+](=O)[O-])s1	i	-2.2&-0.11
CCCc1cc(=O)n2[nH]c(CNc3ccccc3F)nc2n1	i	0.06
CCOC(=O)C(CCc1ccccc1)NC1CCCN2CCCC(C(=O)O)N2C1=O (stereo unspecified)	i	0.74
O=C(CN1c2ccc(Br)cc2-c2ccccc2S1(=O)=O)NC1CC1	i	0.4
COCc1nn2cc(-c3ccccc3)nc2s1	i	0.7
CCn1cc(C(=O)NCC2CC2)c(S(=O)(=O)N2CCSCC2)n1	i	0.52
CCSc1nc2sc3c(c2c(=O)n1CC)CCCC3	i	0.17
CCOC(=O)c1ccccc1NC(=O)CSc1nc(=O)[nH]c2c1CCCC2	i	0.56
CC1CCCN(Cc2cc(=O)[nH]c(C(C)C)n2)C1 (stereo unspecified)	i	-0.28

Additional structures.
mol	Choline anaer gr	Choline anaer gr early
Cc1nn2c(S(=O)(=O)NC3CCCC3)c(C(C)C)nc2s1	i	-0.09
Cc1cccc(N2CCN(C(=O)c3cc4ccccc4c(=O)o3)CC2)c1C	i	-1.3
CC(=O)N1N=C(c2c(O)n(C)c(=S)n(C)c2=O)CC1c1ccccc1 (stereo unspecified)	i	-1.2
CN(C)c1ncc(NS(=O)(=O)c2ccc(F)c(F)c2)cc1C(=O)O	i	0.17
COC(=O)c1c2c(nc3ccccc13)CCC2	i	-0.02
O=C(c1cnc2sccn2c1=O)N1CCN(Cc2ccc3c(c2)OCO3)CC1	i	-1.2
Cc1nc(Nc2ccc(NC(=O)C3CCCCC3)cc2)cc(N2CCCC2)n1	i	-0.63
Nc1nc2n(n1)C(c1ccccc1)C1=C(CCCC1)N2 (stereo unspecified)	i	-0.34
CC(=O)OCC(=O)[C@@]1(O)CC[C@H]2[C@@H]3CCC4=CC(=O)CC[C@]4(C)[C@H]3C(=O)C[C@@]21C	i	0.95
Cc1oc(-c2ccno2)cc1S(=O)(=O)NCCC1=CCCCC1	i	0.54
O=C(O)CCC/C=C\C[C@@H]1[C@@H](/C=C/[C@H](O)C2Cc3ccccc3C2)[C@@H](F)C[C@@H]1O	i	0.72&-0.43
O=C1CCC(c2ccc(Cl)cc2)=NN1	i	-0.92
O=C(Cn1ccc2c(SCc3ccccc3)nccc21)NCc1ccc2c(c1)OCO2	i	0.89
CCC(=O)N1CCN(c2nc(C)cc(N3CCCC3)n2)CC1	i	0.37
Cc1nc(-c2ccc(C(=O)N3CCC(C(=O)N4CCc5ccccc54)CC3)cc2)no1	i	-0.8
CCN(C(=O)CSc1nc(-c2ccccc2)nc2cc(=O)[nH]n12)c1ccccc1	i	-1.9
CCOC(=O)c1cn[nH]c1S(=O)(=O)Nc1ccccc1C	i	-0.64
CC1CCN(C(=O)C2CCN(c3cnc(N4CCCC4)nc3)CC2)CC1	i	-1.5
Cc1c(-c2nnc(C(=O)NCc3ccc(Cl)cc3)o2)oc2ccccc12	i	-1.1
COC(=O)c1cc(=O)c2cc(OC)ccc2[nH]1	i	-2
Cn1cc(CCC(=O)NCc2cccc(Cl)c2)c2ccccc21	i	0.85
COc1ccc2[nH]c(C(=O)NCc3ccc(Cl)cc3)c(N3CCCC3=O)c2c1	i	0.75
CCC(C)NC(=O)c1ccc(OCc2nnc(C(=O)Nc3ccc(Cl)cc3)s2)cc1 (stereo unspecified)	i	0.44
Cc1cc(-c2cc(S(=O)(=O)NC(C)(C)C)c(C)s2)on1	i	0.47
Cc1ccc(NS(=O)(=O)c2cc(-c3nc(C)cs3)cs2)c(Br)c1	i	1.1
O=C(NCc1ccnc(N2CCSCC2)c1)Nc1cc(F)ccc1F	i	-0.31
Cc1csc2ncc(C(=O)N3CCN(c4ccc(F)cc4)CC3)c(=O)n12	i	0.31
CCOC(=O)CC(=O)N1CCSC1COc1ccccc1OC (stereo unspecified)	i	0.82&0.67
CCc1ccc(-n2ncc(-c3cc(C(=O)Nc4ccc5c(c4)OCCO5)c4ccccc4n3)c2C)cc1	i	0.79
CCCCCCCNC(=O)C1CCCN(c2ncc(-c3ccc(F)cc3)cn2)C1 (stereo unspecified)	i	0.62
CCC(CC)c1nc(Cn2ccnc2C)no1	i	0.3
COc1ccccc1N1CCN(S(=O)(=O)c2ccc3c4c2CC(=O)N4CC(C)S3)CC1 (stereo unspecified)	i	0.69
COc1cc(Cl)c(NS(=O)(=O)c2cc(-c3cc(C(F)(F)F)on3)cs2)c(OC)c1	i	-0.18
O=C(Nc1ccccc1)c1nnc(CCC(=O)N2CCC(N3CCCCC3)CC2)s1	i	-2.1
Cc1sc2cc(C(=O)N3CCC4(CC3)OCCO4)[nH]c2c1CN1CCCC1	i	0.15
COc1ccc(CN2CCc3c(Br)cccc3C2)cc1	i	-1.5
COC(=O)c1ccc2c(c1)NC(=O)CO2	i	-1.2
COC(=O)c1c(NC(C)=O)c2c(C)c(C)sc2n1CC(=O)Nc1ccc(OC)cc1OC	i	0.01
Cc1cc(=O)[nH]c(Nc2cccc(Cl)c2)n1	i	-1.4
CCc1nnc(NC(=O)CSc2nnc(-c3ccc(Cl)cc3)o2)s1	i	0.84

Quoted at random: 6 records from the list, in no set order.
mol	Choline anaer gr	Choline anaer gr early
CCCCCCCNC(=O)C1CCCN(c2ncc(-c3ccc(F)cc3)cn2)C1 (stereo unspecified)	i	0.62
COc1ccc2[nH]c(C(=O)NCc3ccc(Cl)cc3)c(N3CCCC3=O)c2c1	i	0.75
COc1ccccc1N1CCN(S(=O)(=O)c2ccc3c4c2CC(=O)N4CC(C)S3)CC1 (stereo unspecified)	i	0.69
Cn1cc(CCC(=O)NCc2cccc(Cl)c2)c2ccccc21	i	0.85
CCOC(=O)CC(=O)N1CCSC1COc1ccccc1OC (stereo unspecified)	i	0.82&0.67
COC(=O)c1ccc2c(c1)NC(=O)CO2	i	-1.2

Remaining list, next part
mol	Choline anaer gr	Choline anaer gr early
O=C(Nc1ccc(Cl)cc1)N1Cc2ccccc2Sc2ncccc21	i	-1.5
Cc1ccc2c(c1)OC=CC(C(=O)Nc1ncc(Cc3ccc(F)cc3)s1)=C2	i	0.37
CCc1nnc(-c2cn(CC(=O)NCCN3CCOCC3)c3ccccc23)o1	i	-0.43
Cn1cnc2c(=O)oc3ccc(S(=O)(=O)NCCc4ccccc4)cc3c21	i	0.62
CCS(=O)(=O)c1ccc(-c2cccc(NC(=O)c3ccccc3C)c2)nn1	i	0.77
CC(C)OC(=O)CCC/C=C\C[C@@H]1[C@@H](/C=C/C(O)COc2cccc(C(F)(F)F)c2)[C@H](O)C[C@@H]1O (stereo partly specified)	i	0.15
O=C(NCc1cc(F)ccc1F)c1cc2c(s1)CN(C1CC1)C2	i	0.29
O=C1CCC(=O)N1c1nc2n(n1)C(c1ccc(Cl)cc1)C=C(c1ccc(Cl)cc1)N2 (stereo unspecified)	i	-0.57
O=S(=O)(c1cc(-c2nnc(C3CC3)o2)co1)N1CCOCC1	i	-0.32
C=CCn1c(=O)c2sc(N(CC)CC)nc2n(CC(=O)Nc2ccc3c(c2)CCC3)c1=O	i	0.46
COc1ccc(Cl)cc1C1Nc2c(C)cc(C)cc2[C@H]2OCCC[C@@H]12 (stereo partly specified)	i	-0.48
O=C(Cn1cc(-c2nc(-c3ccc(Cl)cc3)no2)ccc1=O)Nc1ccc2c(c1)OCO2	i	0.09
CC(C)c1csc(-c2csc(S(=O)(=O)NCc3ccc(F)cc3)c2)n1	i	-0.11
O=C1c2cccnc2C(=O)N1Cc1ccc(S(=O)(=O)N2CCN(c3ccc(Cl)cc3)CC2)cc1	i	1.1
